Compound activity (PubChem)
AID504770: growth inhibitors of E. coli YBA685 in a screen for V. cholerae RctB (chromosome II replication) inhibitors; E. coli YBA685 rctB-dependent plasmid, OD600 growth, 3 h; stronger effect = lower value; z-score (test concentration not listed); actives 0.27% (n = 130,000); AID 504770;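 active = z-score under -2 on both plates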;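 also: wells of about 30 µL received 100 nL stock; score is relative to mean and SD of the test wells; the first replicate is given; strong numbers were not always called active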
Ba CapD inh: CapD enzyme inhibition; purified CapD enzyme, fluorescence intensity read-out; stronger effect = lower value; some hits fall short of the stated cut; z-score (no concentration beside the values); actives 0.23% (n = 140,000);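 active = z-score under -4 in either of two replicates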;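 also: stock transfer was 100 nL into about 40 µL; score is relative to mean and spread of the plate; one replicate is shown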
Active calls of the source: *; . = not tested or not shown; & = joins results of further samples. Not all compounds are listed (hit frequency here may not be typical).

| SMILES | Ba CapD inh | AID504770 |
| --- | --- | --- |
| O=C(CCn1cnc2ccccc21)N/N=C/c1ccccc1 | . | 1.1 |
| O=C(NC1=NCCS1)c1ccccc1 | . | -0.8 |
| CCc1nc2ccc(C(=O)NC(C)C)cc2nc1CC | -0.57 | -1.1 |
| Cc1cccc(N2CCN(CC(=O)c3ccc4cc[nH]c4c3)CC2C)c1 (centres undefined) | 1.8 | -0.3 |
| O=C1CC(N2CCSCC2)C(=O)N1CCc1ccccc1 (centres undefined) | 0.42 | -0.55 |
| COc1ccc(Cc2nc(-c3ccc(NC(=O)c4cccs4)cc3)no2)cc1 | 0.095 | . |
| Cn1c(Cc2ccccc2)n[nH]c1=S | 0.18 | 1.3&-0.3 |
| CC(NC(=O)CSc1nnc(-c2ccco2)n1-c1ccccc1)c1ccccc1 (centres undefined) | -0.33 | 0.05 |
| C1CCN(CC2COC3(CCCC3)O2)CC1 (centres undefined) | -0.6 | 1.4 |
| CC(C)C(=O)Nc1ccc(NC(=O)C(C)(C)C)cc1 | -0.005 | -0.7 |
| CCCN1C(=O)c2ccccc2NC1c1ccc(OC)c(COc2cccc(OC)c2)c1 (centres undefined) | 45 | . |
| CCCCc1ccccc1NC(=O)NCCC | 0.72 | -0.6 |
| CN(C)N=Nc1ccccc1C(=O)NCc1ccc(Cl)cc1 | . | -0.05 |
| Cn1cc(/C=N/NC(=O)CC#N)c2ccccc21 | -0.1 | -1.1 |
| CCOC(=O)c1c(CN(C)C)n(-c2ccccc2)c2cc(Br)c(OC)cc12 | 0.24 | -0.3 |
| COCCn1c(-c2ccc3c(c2)NC(=O)CO3)csc1=Nc1ccccc1 | . | 0.2 |
| COc1ccc(C(=O)Nc2nnc(-c3ccc(Cl)cc3)o2)cc1 | -0.67 | -1.1 |
| CNC(=O)NC(=O)CSc1nc2ccccc2s1 | . | 0.9 |
| CCOC(=O)c1c(-c2ccccc2)oc2cc(Br)c(OCC(=O)C(C)(C)C)cc12 | 0.66 | . |
| Cc1ccc(NC(C#N)c2c(C)[nH]c(=O)[nH]c2=O)cc1 (centres undefined) | 53 | -1 |
| Cc1ccc(C)c(C(=O)CSc2nnc(C)s2)c1 | -0.68 | -0.5 |
| CCN1CCCC1CNC(=O)c1nn(-c2cc(OC)cc(OC)c2)c(=O)c2ccccc12 (centres undefined) | -0.14 | . |
| OC(C#Cc1ccccc1)C#Cc1ccccc1 | -0.32 | 1.6 |
| CCOc1ccc(NC(=O)Cn2c(=O)n(C3CCCC3)c(=O)c3cc(OC)c(OC)cc32)cc1 | 2.1 | -0.1 |
| CCOC(=O)c1c(C)csc1NC(=O)CC(=O)C(F)(F)F | -0.56 | -0.8 |

The list continues:
| SMILES | Ba CapD inh | AID504770 |
| --- | --- | --- |
| O=C(Oc1ccccc1)c1cc(-c2ccccc2)c(C(F)(F)F)s1 | -0.39 | 1.2 |
| COc1nc(NCCO)nc(Nc2ccc(I)cc2C)n1 | 0.27 | -0.65 |
| O=C(Cc1ccccc1)c1ccccc1C(=O)NCc1cccs1 | -0.36 | 1.9 |
| Cc1ccc([N+](=O)[O-])cc1NC(=O)C1CC(O)CN1C(=O)Oc1ccccc1 (centres undefined) | 3.7 | . |
| COc1ccc(C=C2C(=O)OC(C)(C)OC2=O)cc1OC | 0.07 | -0.8 |
| O=C(NC1CC1)C1CCN(C(=O)c2sccc2-n2cccc2)CC1 | 0.22 | 0.45 |
| CCOC(=O)CC1C(=O)NCCN1C1CCCCC1 (centres undefined) | 0.015 | -0.7 |
| CCCCC(CC)CN=C(N)NC(N)=NCCCCCCN=C(N)NC(N)=NCC(CC)CCCC (centres undefined) | 0.41&-0.57 | -5.1* |
| Cc1nc(N2CCN(c3ccccn3)CC2)c2c(C)c(C(=O)O)sc2n1 | -0.54 | . |
| NCC(O)COCc1ccco1 (centres undefined) | -0.03 | 0.05 |
| CCOC(=O)/C(=C\Nc1ccc(F)cc1)S(=O)(=O)c1ccc(Cl)cc1 | 0.42 | -0.8 |
| Cc1ccc(OC(=O)N(C)C)c(CN(C)C)c1 | -0.18 | -1.1 |
| COc1cc(/C=N\n2c(C)n[nH]c2=S)cc(OC)c1OC | -2.5 | -1 |
| O=C(CCN1C(=O)c2ccccc2C1=O)Oc1ccc2c3c(c(=O)oc2c1)CCC3 | -0.63 | 0 |
| Cc1ccc(-c2cc(-c3ccccc3)nc(N3CCCC3)n2)cc1 | . | 3.3 |
| Cc1cccc(NC(=O)CC(NCc2ccco2)C(=O)O)c1C (centres undefined) | . | -0.6 |
| O=C(CSc1nc(NCC2CCCO2)c2ccccc2n1)NC1CCCCC1 (centres undefined) | 1.9 | . |
| O=S(=O)(c1ccccc1)N1N=C(c2cccs2)CC1c1ccc(F)cc1 (centres undefined) | -0.23 | . |
| N#CCSc1[nH]c(=O)c(-c2nc(-c3ccccc3)cs2)cc1C#N | . | 0.5 |
| CC(C)N(C(=O)CSc1ccccc1C(=O)O)c1ccccc1 | 0.17 | -0.1 |
| COC(=O)Cn1c2ccccc2c2nc3ccccc3nc21 | -0.83&-0.1 | 0.6&1.7 |
| COc1cc(CNc2ccc(F)cc2C)cc(OC)c1 | -0.075 | -0.2 |
| N#C/C=C/c1cc(C(F)(F)F)cc(C(F)(F)F)c1 | -0.48 | . |
| CC1(C)CC(=O)C/C(=N/Nc2nc3ccccc3s2)C1 | . | -1 |
| COc1cc(OC)cc(C(=O)NC(C(=O)O)C23CC4CC(CC(C4)C2)C3)c1 (centres undefined) | -0.94 | -0.5 |

Molecules from the list above containing fluorine, in the order listed:
| SMILES | Ba CapD inh | AID504770 |
| --- | --- | --- |
| CCOC(=O)c1c(C)csc1NC(=O)CC(=O)C(F)(F)F | -0.56 | -0.8 |
| O=C(Oc1ccccc1)c1cc(-c2ccccc2)c(C(F)(F)F)s1 | -0.39 | 1.2 |
| CCOC(=O)/C(=C\Nc1ccc(F)cc1)S(=O)(=O)c1ccc(Cl)cc1 | 0.42 | -0.8 |
| O=S(=O)(c1ccccc1)N1N=C(c2cccs2)CC1c1ccc(F)cc1 (centres undefined) | -0.23 | . |
| COc1cc(CNc2ccc(F)cc2C)cc(OC)c1 | -0.075 | -0.2 |
| N#C/C=C/c1cc(C(F)(F)F)cc(C(F)(F)F)c1 | -0.48 | . |

The list goes on.
| SMILES | Ba CapD inh | AID504770 |
| --- | --- | --- |
| N#Cc1cnc(N2CCN(c3ccccc3)CC2)nc1N | -0.19 | 2.5 |
| Cc1ccc(Oc2ccc(S(=O)(=O)N3CCOCC3)cc2C(N)=O)c(-n2nc3ccccc3n2)c1 | 3.1 | -0.45 |
| O=C(CCCC(=O)c1ccccc1)Nc1nc2ccc(Br)cc2s1 | 0.17 | 1.9 |
| COC(CN(C)C(=O)C1CCC(CNS(=O)(=O)c2ccc(Cl)cc2)CC1)OC (centres undefined) | -0.94 | -0.6 |
| COC(=O)Nc1ccc(S(=O)(=O)N(C)C)cc1 | -0.77 | -0.9 |
| COc1ccc(C(=O)NCC2COc3ccccc3O2)cc1OC (centres undefined) | -0.095 | -0.8 |
| O=C(Nc1ccc(F)cc1)c1oc2ccccc2c1CSc1ncn[nH]1 | . | -1.2 |
| COc1cc(C)nc(NC(=O)NS(=O)(=O)c2ccccc2NC(=O)C(F)(F)F)n1 | 0.37 | -0.25 |
| O=C(CC(CC(=O)N1CCN(C(=O)Cc2ccc(F)c(F)c2)CC1)c1ccc(Br)cc1)C1CC1 (centres undefined) | 0.1 | . |
| O=C(c1cccc(N2C(=O)C3C4C=CC(C4)C3C2=O)c1)N1CCC(Cc2ccccc2)CC1 (centres undefined) | 0.12 | . |
| CCC(=O)NCC(c1ccc(N(C)C)cc1)N1CCOCC1 (centres undefined) | -1.1 | 0.3 |
| COc1ccc(CCN(C)C2CC(=O)N(c3ccccc3)C2=O)cc1OC (centres undefined) | 0.22 | -0.25 |
| C=CCCN1CC2C[C@@H](C1)Cn1c2cccc1=O | 0.31 | -0.6 |
| Nc1ncnc2nc(Sc3ccc([N+](=O)[O-])cc3[N+](=O)[O-])[nH]c12 | 0.24 | . |
| COc1ccc(NC(=O)c2ccccc2SCCC(F)=C(F)F)cc1 | -1 | . |
| Oc1ccc(Br)cc1CNCc1ccccc1 | -0.31 | 1.2 |
| CC(Oc1ccccc1F)C(=O)NCc1ccc2c(c1)OCO2 (centres undefined) | 0.74 | 0.15 |
| COc1cc(C=Nc2c(C)n(C)n(-c3ccccc3)c2=O)ccc1OC(=O)c1ccco1 | -0.055 | 0.7 |
| CC1=NN(C2CCS(=O)(=O)C2)C(=O)C12Cc1c(C)nn(-c3ccccc3)c1N1CCCCC12 (centres undefined) | . | -0.25 |
| CCN(CC)c1ccc2cc(-c3nc4ccccc4[nH]3)c(=O)oc2c1 | -0.87 | -0.85 |
| O=C(Nc1ccc2[nH]c(=O)[nH]c2c1)c1cc2ccccc2o1 | -0.46 | 2.2 |
| Cc1ccc(Oc2cc(Sc3ccc(C)cc3)nc(-c3ccccc3)n2)cc1 | 0.21 | . |
| COC(=O)c1ccc([N+](=O)[O-])cc1Cl | -0.12 | . |
| O=C(Cc1c(Cl)cccc1Cl)NC1=NCCS1 | . | -0.1 |
| CN(C)c1nc(NCc2ccccc2)nc(Nc2ccc(OC(F)(F)F)cc2)n1 | -0.4 | -0.05 |

Next section:
| SMILES | Ba CapD inh | AID504770 |
| --- | --- | --- |
| CCN(CC)C(=S)CSc1nc(-c2ccccc2)cc(-c2ccco2)c1C#N | 0.83 | 1.5 |
| CCOc1ccccc1N1C(=O)C2C(c3ccc(C)cc3)OC3(C(=O)c4ccccc4C3=O)C2C1=O (centres undefined) | -1.3 | . |
| CC(=O)Nc1nc(C23CC4CC(CC(C4)C2)C3)cs1 | 0.35 | -0.05 |
| Cc1ccc(-c2csc3ncn(-n4c(C)ccc4C)c(=O)c23)o1 | 0.11 | -0.3 |
| CCOc1nc2ccccc2c(=O)[nH]1 | 2.2 | -0.7 |
| CC(C)Nc1nc(NC(C)C)nc(OCCNC(=O)COc2ccc(Cl)cc2Cl)n1 | -0.19 | . |
| COC(=O)c1sccc1-c1ccc(/C=N/OCc2cc(F)cc3c2OCOC3)o1 | 19 | -0.45 |
| CCn1c(SC)nnc1-c1nnc(SC)n1CC | 0.03 | -0.55 |
| CSc1nnc(-c2ccccc2)n1N | -0.26 | 1.3 |
| CC(Oc1ccccc1)C(=O)N1CCN(c2ccc(N3CCCCC3)nn2)CC1 (centres undefined) | . | -0.1 |
| CC1CC2(CC(C)OC2=O)C(=O)O1 (centres undefined) | 1 | . |
| O=c1c2ccccc2[nH]c(=S)n1CCC1=CCCCC1 | . | 1.7 |
| CCOC(=O)C(Cc1ccccc1Cl)Sc1nnc(N)s1 (centres undefined) | . | 0.1 |
| CCCCCC1(C(=O)OCC)CC(CSc2nc3ccccc3[nH]2)OC1=O (centres undefined) | -0.23 | . |
| COc1ccc2nc(NC3=NC(C(=O)Nc4ccccc4)CC(=O)N3)nc(C)c2c1 (centres undefined) | 11 | . |
| CC1(C)CC(=O)C=C(Nc2ccc3c(c2)OCCO3)C1 | -0.54 | 1.6 |
| COc1cc(NS(=O)(=O)c2ccc(-n3c(=S)[nH]c4ccc(Cl)cc4c3=O)cc2)nc(OC)n1 | 3.4 | . |
| O=C(CCCN=C1NS(=O)(=O)c2ccccc21)Nc1ccccc1N1CCOCC1 | . | 0.3 |
| CC(C(=O)O)c1ccc(-c2ccccc2)c(F)c1 (centres undefined) | -0.21&-0.32 | 0.75 |
| COc1ccccc1CNC(=O)CN1NS(=O)(=O)c2ccccc2C1=O | . | 0.2 |
| CCNc1nc(NCC)n2c(SCC(=O)N3CC4(C)CC3CC(C)(C)C4)nnc2n1 (centres undefined) | . | -0.1 |
| Cn1c(=O)c2c(nc(SCC(=O)N3CCCCC3)n2C)n(C)c1=O | 0.29 | -0.3 |
| CN(c1cnn(-c2ccc(Cl)cc2Cl)c(=O)c1Cl)N1CC(C)(C)C1=O | -1.4 | 1.9 |
| CN=c1scc(-c2ccc(NC(C)=O)cc2)n1C | . | -0.1 |
| CCOc1cccc(-c2cc(C(=O)Nc3ccc4c(c3)OCCO4)c3ccccc3n2)c1 | 0.23 | . |

Single records, from the list above. Order of values: Ba CapD inh | AID504770
`CC(NC(=O)CSc1nnc(-c2ccco2)n1-c1ccccc1)c1ccccc1` (centres undefined) reads -0.33 | 0.05
`Oc1ccc(Br)cc1CNCc1ccccc1` reads -0.31 | 1.2
`COc1ccc(NC(=O)c2ccccc2SCCC(F)=C(F)F)cc1` reads -1 | .
`CC(Oc1ccccc1)C(=O)N1CCN(c2ccc(N3CCCCC3)nn2)CC1` (centres undefined) reads . | -0.1
`Cc1ccc(-c2cc(-c3ccccc3)nc(N3CCCC3)n2)cc1` reads . | 3.3

The list goes on:
| SMILES | Ba CapD inh | AID504770 |
| --- | --- | --- |
| O=C(NCCc1c[nH]c2ccccc12)c1ccc2c(c1)NC(=O)C1CCCN21 (centres undefined) | 3.2 | -0.5 |
| Cc1cc(N=NNc2cc(C)on2)no1 | 0.075 | . |
| COc1ccc(OC)c(C(c2sc3nc(C)nn3c2O)N(C)Cc2ccccc2)c1 (centres undefined) | . | -0.1 |
| CC(C)C(NS(=O)(=O)c1ccc(Br)s1)C(C)C | -0.41 | 0.65 |
| CCOC(=O)c1sc(NC(=O)CSc2nnc3ccccn23)c(C(=O)OCC)c1C | -0.62 | . |
| COCCCn1c(SCc2cc(C(=O)OC)c(C)o2)nnc1-c1ccccc1Cl | . | -0.1 |
| O=C(O)Cc1sc(-c2ccccn2)nc1-c1cccs1 | . | -3.2 |
| S=C1NC2(CCCC2)Nc2sc3c(c21)CCCC3 | -0.56 | . |
| CCN(CC(=O)Nc1ccccc1OC)Cc1cc(=O)n2c(-c3ccccc3)csc2n1 | . | -0.35 |
| CC1=C(C(=O)N2CCCCC2)C(c2ccc(O)c([N+](=O)[O-])c2)C2=C(CCCC2=O)N1 (centres undefined) | -0.37 | . |
| COC(=O)c1cn(Cc2ccc(C(F)(F)F)cc2)cc(F)c1=O | 0.94 | -0.2 |
| COc1ccc(N2CC(O)(c3ccccc3)[N+]3=C2SCCC3)cc1 (centres undefined) | 0.28 | . |
| Cc1cccc(N2C(=O)/C(=C/c3ccc(-c4ccc(Br)cc4)o3)C=C2c2ccccc2)c1 | -0.43 | . |
